AmpC inh no det: blocks E. coli AmpC beta-lactamase in absence of detergent; P00811; AmpC nitrocefin hydrolysis, absorbance 480 nm, no detergent; potencies from a single point are estimates; Potency, µM (highest dose often 28.7 µM), for inactives: top-dose activity change, negative = inhibition; actives 1.8% (n = 71,000); active = falling curve, for most hits resting on a single point; inconclusive = weak or doubtful change; inactive = flat or rising curve; note: % of control where 0% means no effect; about half of the hits show no inhibition at the top dose; a quarter of the inactives give rising signals
Target sequence (P00811 whole entry, looked up): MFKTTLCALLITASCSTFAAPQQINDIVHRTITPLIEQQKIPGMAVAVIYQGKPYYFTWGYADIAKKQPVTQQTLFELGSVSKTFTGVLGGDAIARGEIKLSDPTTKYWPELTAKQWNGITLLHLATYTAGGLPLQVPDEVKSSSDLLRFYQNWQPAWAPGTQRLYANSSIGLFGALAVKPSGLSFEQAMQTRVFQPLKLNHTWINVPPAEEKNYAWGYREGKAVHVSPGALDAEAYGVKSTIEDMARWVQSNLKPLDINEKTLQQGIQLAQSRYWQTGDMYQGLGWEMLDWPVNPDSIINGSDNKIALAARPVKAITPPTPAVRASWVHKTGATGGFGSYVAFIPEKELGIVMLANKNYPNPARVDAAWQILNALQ
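AmpC in 20 mM phosphate buffer pH 7.0 was preincubated 15 min at room temperature with compounds. Nitrocefin (800 uM stock) was then added and hydrolysis followed at 480 nm every 20 s for 4 min.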
Numbers without * were called inactive; u = inconclusive; & = joins results of further samples; [ ] = remark or other dose. Potency is the fitted concentration of half-maximal effect. The list is partial; count on the stated rates, not on these rows.

structure	AmpC inh no det
O=C(c1ccc(Cl)c(Cl)c1)N1CCOCC1	-2%
Cc1ccc(-n2nc(-c3cccnc3)cc2C(=O)N2CCOCC2)c(C)c1	36%
O=C(c1cccc(COc2ccc(Cl)cc2Cl)c1)N1CCN(c2ccccn2)CC1	73%
CCOC(=O)c1ccc(-n2c(C)nc3c(cnn3-c3ccccc3C)c2=O)cc1	49%
COc1cc(OC)c(NC(=O)c2ccco2)cc1Cl	-8%
C=C1CC[C@H](O)C/C1=C/C=C1\CCC[C@]2(C)[C@H]1CC[C@H]2[C@@H](C)CCCC(C)C	48%[12.8 µM]
CCN1CCN(C(=O)c2cn(CCOC)c(=O)c3c2c2ccccc2n3C)CC1	31%
COc1ccc(Cl)c(NC(=O)Cn2nnc(-c3ccccc3N)n2)c1	-16%
O=C(O)Cc1cc(Cl)ccc1O	-13%[5.75 µM]
Nc1cc(C(=O)O)ccc1Nc1ccc(F)c(F)c1	-17%
CCCCCOc1ccc(C(=O)N(Cc2ccco2)C2CCS(=O)(=O)C2)cc1 (stereo unspecified)	99%
COc1ccc(CNC(=O)CSc2ncn[nH]2)cc1	4%
Cc1cc(C(=O)NCc2ccccc2F)cs1	-15%
CCOc1ccc(-n2c(CC)nc3ccccc3c2=O)cc1	3.2µM*[single pt active]
CCOc1ccc(-c2nc(C#N)c(N3CCN(C)CC3)o2)cc1	68%

Next part:
structure	AmpC inh no det
COc1ccc(-c2cc(C(=O)NCc3ccccc3)no2)cc1OC	0.4µM*
O=C(NCC(=O)N(Cc1cccs1)C(C(=O)NC1CCCC1)c1ccncc1)c1ccco1 (stereo unspecified)	30%
CN(c1cccc(NC(=O)Cc2ccccc2)c1)S(C)(=O)=O	15%
CN(C)c1[nH]c(=O)c(C#N)c2c1CCN2Cc1ccccc1	2%
CCOc1ccccc1NC(=O)c1ccccc1-c1nc(-c2ccccc2)no1	10%
Cc1cc(C)nc(SCc2nnc(SCC(=O)Nc3cc(C(F)(F)F)ccc3Cl)o2)n1	71%
CC1Cc2ccccc2N1C(=O)c1ccc2c(c1)nnn2C (stereo unspecified)	4%
Cc1nnc(SCC(=O)N2CCN(S(=O)(=O)c3ccc(Cl)cc3)CC2)[nH]c1=O	9%
COc1ccc(CN2CCNC(=O)C2CC(=O)O)cc1OC (stereo unspecified)	4%
CC(NC(=O)c1ccco1)C(c1cccs1)N1CCN(c2ccccc2F)CC1 (stereo unspecified)	59%
CC(C)(C)C1CCc2c(sc3c2C(=O)NC(c2ccco2)N3)C1 (stereo unspecified)	19%
Oc1ccc(C=Nc2ccc(N3CCOCC3)cc2)c(O)c1	37%
CCOC(=O)Cn1nnnc1C(C(C)C)N(Cc1cc2c(C)cc(C)cc2[nH]c1=O)C1CCCC1 (stereo unspecified)	44%
C=CCn1cc(C(=O)OC)c(=O)c2cc(S(=O)(=O)N3CCC(C)CC3)ccc21	46%
Cc1noc(C)c1CSCC(=O)OCC(=O)NC1CCCCC1	-3%

Further records follow:
structure	AmpC inh no det
CC(C)(C)NS(=O)(=O)c1ccc(CCC(=O)O)cc1	1%
Cc1oc(C(=O)O)cc1CSCc1cc(C(=O)O)c(C)o1	-13%
CN(C)c1nc(N2CCOCC2)nc(N(c2ccccc2)c2ccccc2)n1	73%
COCCn1c(SCC(=O)NCc2ccco2)nc2cccnc21	10%
CCCn1nnnc1SCC(=O)Nc1ccc(F)cc1	-11%
Cc1cccc(NC(=O)c2cc3ccccc3o2)c1	-10%
Cc1noc(C)c1-c1cc(N2CCNCC2)ncn1	5%
COc1cccc(NC(=O)Cn2c(-c3cncs3)nc3ccccc32)c1	-2%
C[C@@H]1C[C@H]2[C@@H]3C[C@H](F)C4=CC(=O)C=C[C@@]4(C)[C@]3(F)[C@H](O)C[C@]2(C)[C@@]1(O)C(=O)CO	5%[12.8 µM]
C=CCSc1nnc2nc3c(nn12)c1cc(C)ccc1n3CC=C	27%
Cc1cc(C)cc(NS(=O)(=O)c2ccc3[nH]cc(C(=O)NCc4ccco4)c(=O)c3c2)c1	13µM*[single pt active]
COc1ccc(NC(=O)CCc2nc(-c3ccccc3F)no2)cc1	6%
Cc1cc(Cl)nc(NC(=O)CSc2ccc(Cl)cc2)n1	2%[5.75 µM]
O=C(NCc1cccs1)c1cc2c(s1)-c1ccccc1OC2	16µM*
Cc1ccc(Nc2nc(CSc3nnnn3C)cs2)cc1	-11%

(further entries)
structure	AmpC inh no det
CN(CC(=O)Nc1nccs1)S(=O)(=O)c1ccc(F)cc1	-9%
Cc1cc(OCC(=O)Nc2c(C)n(C)n(-c3ccccc3)c2=O)c2c3c(c(=O)oc2c1)CCC3	38%
Cc1ccc(OCc2nc(C#N)c(N3CCCC3)o2)cc1	28%
CC(=O)N1CCc2cc(S(=O)(=O)N3CCOCC3)ccc21	-2%
CC(C)Oc1ccc(C(=O)N(CN2CCCC2=O)c2ccc(F)cc2)cc1	61%
O=C(/C=N/O)Nc1ccccc1C(=O)O	0%
COc1ccc(C(=O)N2CCC3(CCCN(C(=O)Nc4cccc(C#N)c4)C3)CC2)cc1	37%
Cc1ccc(-n2c(Cc3cccn3C)nnc2SCC(N)=O)cc1	25%
COc1ccc(CC(=O)Nc2ccc(N3CCN(c4ccc(OC)cc4)CC3)c(C#N)c2)cc1	4%
Cc1nnc(SCc2cc(=O)n3[nH]cnc3n2)s1	-9%
COc1ccc(CCn2c(C)cc(C(=O)CSc3nnnn3C)c2C)cc1	1%
CCOC(=O)c1cccnc1SCC(=O)N(C)c1ccccc1	31%
CCS(=O)(=O)Nc1ccc(C(=O)CC2(O)C(=O)Nc3ccc(Br)cc32)cc1 (stereo unspecified)	-2%
CCCCC1CCC(C(=O)Nc2c(C)n(C)n(-c3ccccc3)c2=O)CC1 (stereo unspecified)	0%
COC(=O)c1[nH]c2cc(C)ccc2c1NC(=O)CN1CCc2cc(OC)c(OC)cc2C1	107%

Six entries out of the list, ordered by number of heavy atoms, lowest first.
structure	AmpC inh no det
Cc1ccc(OCc2nc(C#N)c(N3CCCC3)o2)cc1	28%
CCOC(=O)c1cccnc1SCC(=O)N(C)c1ccccc1	31%
Cc1ccc(-n2c(Cc3cccn3C)nnc2SCC(N)=O)cc1	25%
COc1ccc(CCn2c(C)cc(C(=O)CSc3nnnn3C)c2C)cc1	1%
COc1ccc(C(=O)N2CCC3(CCCN(C(=O)Nc4cccc(C#N)c4)C3)CC2)cc1	37%
Cc1cc(OCC(=O)Nc2c(C)n(C)n(-c3ccccc3)c2=O)c2c3c(c(=O)oc2c1)CCC3	38%

Continued.
structure	AmpC inh no det
Cc1ccc(C2C(C#N)=C(N)SC(N)=C2C#N)cc1	-6%
O=C(c1cnsn1)N1CCN(c2ccccc2)CC1	9%
COC(=O)c1cc(=O)n(C2CC2)c(=NC2CC2)s1	17%
CCCCNC(=O)c1ccc(CS(=O)(=O)c2ccc(OC)cc2)o1	4µM*[single pt active]
Cc1cc(C)n(CC(=O)n2c3ccccc3c3ccccc32)n1	-7%
O=C(CCc1nc2ccccc2[nH]1)Nc1ccccc1	-10%
COC(=O)[C@@]1(Cc2ccc(OC)cc2)[C@H]2c3cc(C(=O)N4CCCC4)n(Cc4ccc(OC(F)(F)F)cc4)c3C[C@H]2CN1C(=O)c1ccccc1	96%
CCCCSc1nnc([C@@H]2CCCN2C(=O)OC(C)(C)C)o1	62%
O=C(Cn1c(-c2ccccc2)noc1=O)Nc1ccc(N2CCCCCC2)cc1	13µM*
O=C1c2ccccc2NC2CCCCC12 (stereo unspecified)	36%
Cc1cc(NC(=O)c2cccc(S(=O)(=O)N3CCOCC3)c2)c2ccccc2n1	30%
COc1ccc2cc(CCNC(=O)c3ccc(Br)o3)c(=O)[nH]c2c1	15%
CCn1nnc(NC(=O)c2cc3ccccc3o2)n1	0%
COc1cc(C2NC(=O)NC(C)=C2C(=O)OC(C)(C)C)ccc1OCC(=O)O (stereo unspecified)	-1%
COC(=O)c1ccc(OC(=O)c2ccco2)cc1	-5%

Following part
structure	AmpC inh no det
Clc1ccc(CSc2nnc(-c3ccncc3)o2)cc1	40%
COc1ccccc1OCCn1c(C(C)O)nc2ccccc21 (stereo unspecified)	25%
O=C(Nc1ccc(NC(=O)C2CC2)cn1)c1ccccc1Cl	7%
CCCS(=O)(=O)c1nc(S(=O)(=O)c2ccc(C)cc2)c(NCCCN2CCOCC2)s1	104%
C[C@@H]1C(=O)O[C@@H]2C[C@]34[C@H]5C[C@@H](C(C)(C)C)[C@@]36[C@@H](OC(=O)[C@@H]6O)O[C@@]4(C(=O)O5)[C@@]12O	-1%[12.8 µM]
COc1cccc(NC(=O)Cn2nnc(-c3ccccc3N)n2)c1	-5%
COC(=O)N1CCN(C(=O)Cc2ccc(Cl)c(Cl)c2)[C@H](CN2CCCC2)C1	36%&18%
CCOc1ccccc1-n1c(SCC(=O)NC(C)CC)nnc1-c1ccoc1C (stereo unspecified)	21%
N#CC1C(=O)NC(N2CCN(c3ccccc3)CC2)=NC12CCCCC2 (stereo unspecified)	-6%
COc1ccc(-c2nnc(SCC(=O)Nc3cccc(Cl)c3)o2)cc1	7.9µM*
Cc1cc(S(=O)(=O)NCC(C)C)ccc1OCC(=O)N1CCOCC1	23%
Cc1nc2nc(-c3ccccc3)nn2c(C)c1Cl	-4%
CC(C)(C)n1nc(C2CC2)cc1NC(=O)Nc1ccc(Cl)cc1	0%[5.75 µM]
Cc1csc(SCCn2c(N3CCCC3)nc3c2c(=O)[nH]c(=O)n3C)n1	14%
COc1ccc(-c2nc(CS(=O)CC(=O)N3CCCC3)c(C)o2)cc1 (stereo unspecified)	4µM*[single pt active]

Carrying on.
structure	AmpC inh no det
O=C(NCc1ccccc1)c1ccc(OC2CSC2)cc1	2%
CCc1cc2c(=O)c(-c3ccc4c(c3)OCCO4)coc2cc1OC(=O)c1ccco1	0%
C[C@@H]1O[C@H](O[C@@H]2[C@@H](Oc3cc(O)c4c(c3)O[C@H](c3ccc(O)cc3)CC4=O)O[C@@H](CO)[C@@H](O)[C@H]2O)[C@@H](O)[C@H](O)[C@@H]1O	4%[12.8 µM]
CCOC(=O)CSC1=Nc2ccccc2C2=NC(CC(=O)NCc3ccccc3)C(=O)N12 (stereo unspecified)	21%
CC[N+](C)(C)c1cccc(O)c1	-5%[12.8 µM]
N[C@@H](Cc1ccccc1)C(=O)O	3%[5.75 µM]
CC(C)[N+](C)(CCC(C(N)=O)(c1ccccc1)c1ccccc1)C(C)C	-26%[12.8 µM]
Cn1cccc1C(=O)N1CCC2(CC1)CN(C(=O)Nc1ccccc1)C2	13%
COc1ccc(-c2nc(CS(=O)CC(=O)NC3CCCc4ccccc43)c(C)o2)cc1OC (stereo unspecified)	152%
C=C(C)Cn1c(SCC(=O)NCc2ccco2)nc2sc3c(c2c1=O)CCC3	82%
COc1ccc(N2C(=O)C3CCCN3C2c2ccc(Cl)cc2)cc1 (stereo unspecified)	57%
COCCn1nnnc1C(c1cc2cc(C)ccc2[nH]c1=O)N1CCCCCC1 (stereo unspecified)	42%
C=CCOC(=O)COc1ccc2c(C)c(CC)c(=O)oc2c1	21%
COc1cccc(C(=O)NCC(=O)N2CCC(C)CC2)c1	-6%
C/C(=N\O)c1ccc2c3c([nH]c2c1)CCCC3	-9%

New compounds follow.
structure	AmpC inh no det
Cc1c(Nc2nc3ccccc3nc2NS(=O)(=O)c2ccccc2)c(=O)n(-c2ccccc2)n1C	-10%
Nc1c(C(=O)NC2CCCC2)c2nc3ccccc3nc2n1N	134%
c1ccc(CCN2CCC(N3CCN(c4ccccc4)CC3)CC2)cc1	22%
O=c1c(O)c(-c2ccc3c(c2)OCO3)oc2ccccc12	5%
CCOc1ncccc1C(=O)OCC(=O)c1ccc[nH]1	3%
O=C(c1ccncc1)N1CCC2(CC1)CN(c1cccc(-c3ccccc3)c1)C2	167%
O=C(NC1=NCCS1)C1CC2CCC1C2 (stereo unspecified)	1%
CC(=O)N1c2c(cc(Br)cc2S(=O)(=O)N2CCOCC2)CC1C (stereo unspecified)	33%
CSC1=NCCN1C(=O)Cc1ccc(F)cc1	14%
CCC(C)N(C(=O)COC(=O)c1[nH]c(C)c(C(C)=O)c1C)C1CCS(=O)(=O)C1 (stereo unspecified)	15%
CN(C)S(=O)(=O)c1cccc(-c2nnc(SCc3cc(Cl)cc4c3OCOC4)n2N)c1	-6%
N=c1c(C(=O)NCc2ccco2)cc2c(=O)n3ccccc3nc2n1Cc1ccc(Cl)cc1	69%
CCCN(CCC)CCCNC(=O)CS(=O)Cc1nc(-c2ccc(OC)c(OC)c2)oc1C (stereo unspecified)	50%
CCOC(=O)CN1C(=O)C2(OCCCO2)c2ccccc21	7%
Cn1nc(-c2ccccc2)c2nc3ccccc3nc21	81%

(list continues)
structure	AmpC inh no det
CCCC[C@@H]1C[C@H]1C(NC(=O)c1cccs1)c1ccc(C(F)(F)F)cc1 (stereo partly specified)	u
Cc1cc(C)c2c(N)c(S(=O)(=O)Cc3ccccc3)sc2n1	10%
CN1CCN(CCNC(=O)Nc2ccccc2C(F)(F)F)CC1	-10%
COc1ccc(C(c2nnnn2C2CCCCC2)N2CCN(c3ccccc3F)CC2)cc1 (stereo unspecified)	27%
CCOc1ccc(NC(=O)CS(=O)CC(=O)NC2CCCc3ccccc32)cc1 (stereo unspecified)	3%
COc1ccccc1NC(=O)CN1CCN(Cc2ccccc2)CC1	-13%
CC(=O)Nc1ccc(S(=O)(=O)Nc2nc3ccccc3nc2Sc2nncn2C)cc1	-20%
N#Cc1ccccc1Cn1cc(C(=O)c2ccco2)c2ccccc21	5%
O=C(Cn1nnc(-c2ccccc2F)n1)Nc1ccc(C(=O)N2CCOCC2)cc1	18%
